Screening data from PubChem BioAssay.
PrP 5UTR inh: inhibition of PrP 5' UTR reporter expression. cell-based PrP 5' UTR mRNA reporter, plate reader. inhibition, % (test concentration not listed). 340,000 tested, 0.35% active. AID 488862;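 active = every replicate at 50% or more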;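 note: 0 = median of the neutral control wells; tested in H4 reporter cells; numbers are from one replicate; inactives centre near -14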
Sa RN4220 lethal: S. aureus RN4220 growth inhibition. 330,000 tested, 0.33% active. OD600, 16 h. inhibition, % (test concentration not listed);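 active = z-score of -3 or lower and OD600 up to 0.18 on both plates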;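 note: plate controls were untreated cells for no effect and reference antibiotic for full effect; stock transfer was 100 nL into about 80 µL; one replicate is shown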
Bead autofluor: compound fluorescence in toxin protease inhibitor counterscreen. compound autofluorescence counterscreen, microsphere flow cytometry; active compounds read high. fluorescence intensity (concentration not given with the values). 360,000 tested, 3.1% active. AID 624483;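 active = at least 3 SD above the mean of all compounds, about 16000 in these data; inconclusive = too few beads counted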;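 note: 100 nL of 1 mM stock went into each well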
Mtb hypoxia inh: reduces hypoxia-regulated biosensor signal in M. tuberculosis | M. tuberculosis hypoxia-regulated fluorescent reporter, fluorescence | fluorescence inhibition, % (concentration not given with the values) | 300,000 tested, 0.1% active | AID 1159583;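 active = 35 to 45% if threefold the growth effect, above 45% if 1.5-fold the growth effect; inactive = the rest, general growth blockers included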;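 note: wells of about 50 µL received 100 nL stock; 0% = vehicle wells and 100% = reference inhibitor wells; whole bacteria with a GFP reporter of the hypoxia response; strong numbers were not always called active; many hits fall short of the cut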
Sa ugtP lethal: growth inhibition of S. aureus ugtP deletion strain; S. aureus RN4220 ugtP deletion, OD600 growth, 16 h; some inactives read as strong as hits; growth inhibition, % (no concentration beside the values); 330,000 tested, 0.54% active;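 active = z-score under -3 and OD600 up to 0.15 on both plates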;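 note: plate controls were untreated wells for no effect and antibiotic for full effect; wells of about 80 µL received 100 nL stock; the first replicate is given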
BJeLR viability: BJeLR cell viability loss. BJeLR (HRASV12) viability, CellTiter-Glo ATP luminescence, 48 h; reference of the scale not given here. inhibition, % (no concentration beside the values). 300,000 tested, 0.17% active;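 active = replicate mean above 50%; inconclusive = above 50% but judged a plate artefact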;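 note: 50 nL library stock added to about 25 µL; numbers are from one replicate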
Mtb hypoxia inh growth: recorded beside Mtb hypoxia inh, whose call it bears; growth inhibition, %; measured here: M. tuberculosis growth (absorbance);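 0% = vehicle and 100% = reference antibiotic; read after six days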
Numbers without * were called inactive; ? = inconclusive; . = no result given.

Every second line gives: PrP 5UTR inh, Sa RN4220 lethal, Bead autofluor, Mtb hypoxia inh, Mtb hypoxia inh growth, Sa ugtP lethal, BJeLR viability
1	CCCc1cc(C(=O)NCc2ccc(OC)cc2)no1
    -22, 0.4, 5576, 4, 4, 4, 3
2	COc1cccc(/C=C2\N=C(C3CCCCC3)OC2=O)c1OC
    -21, 16, 4068, 7, 7, 5, 19
3	O=C(NNS(=O)(=O)c1ccc(F)cc1)c1ccccc1
    -25, -5.3, 3238, -5, 4, 0, -9
4	CCN(CC)S(=O)(=O)c1ccc(N2CCN(c3ccccc3O)CC2)nc1
    -18, 4.4, 4246, -3, -4, -2, 3
5	Cc1ccc(-n2c(=O)c(C#N)cc3c(=O)n4cccc(C)c4nc32)cc1
    -30, -1.3, 20956*, 6, 10, -4, -2
6	O=C(NCCc1ccccc1)C1CCCN(S(=O)(=O)c2cccs2)C1 (stereo unspecified)
    -13, 2.3, 5318, 1, -4, 5, 4
7	Cc1ccc(C(=O)NCCc2ccc(S(N)(=O)=O)cc2)cc1[N+](=O)[O-]
    -6, -1.2, 2466, -1, 7, -2, 6
8	CCc1ccccc1N1CC(C(=O)O)CC1=O (stereo unspecified)
    -23, -4.6, 2933, ., ., -7, 8
9	O=C(Nc1ccc(N2C(=O)C3C4C=CC(C4)C3C2=O)cc1)Nc1nncs1 (stereo unspecified)
    -9, 6.8, 5748, 1, 2, 7, 2
10	Cc1ccc(F)cc1NC(=O)N1CCNC(=O)C1CC(=O)Nc1cc(Cl)ccc1Cl (stereo unspecified)
    -2, -3.1, 5613, -11, -13, -3, -5
11	CC1CCC2C(=O)N(c3cccc(OS(=O)(=O)c4ccccc4)c3)C(=O)C2C1 (stereo unspecified)
    0, 8.5, 2568, 6, 14, 0, -1
12	O=C(O)c1cc([N+](=O)[O-])c(Nc2cccc3ccccc23)c([N+](=O)[O-])c1
    -9, 10, 3677, 19, 10, 12, -2
13	Cc1nc2ccccc2n1CC(O)COc1ccccc1Cl (stereo unspecified)
    -4, -9.3, 3725, 9, -5, 7, 13
14	CC(C)(C)C(=O)CN1C(=O)NC2(CCc3ccccc32)C1=O (stereo unspecified)
    -25, 4.0, 5485, 10, 5, -1, -1
15	CC1(C)CC(=O)c2sc(NS(=O)(=O)c3ccccc3)nc2C1
    -25, 3.0, 4560, 3, 1, 3, 3
16	Clc1ccc(SCc2cc(N3CCOCC3)nc(-c3ccccn3)n2)cc1
    -19, 3.8, 3305, 9, 1, 4, -12
17	CCc1ccccc1NC(=O)/C(C#N)=C/c1ccc(Sc2ccccc2)o1
    -7, 0.2, 3078, 4, 14, 2, -14
18	COC(=O)c1cn(C(=O)c2ccc(F)cc2)c2ccccc12
    -16, 4.8, 3876, 19, 6, -2, 21
19	Cc1c(CC(=O)N[C@@H](C)C(=O)O)c(=O)oc2cc3occ(-c4ccccc4)c3cc12
    -20, 3.2, 3700, 10, 5, 7, 1
20	Cc1nc2c(-c3ccccc3)c[nH]n2c(=O)c1Cc1ccccc1
    -68, 7.5, 4720, -11, 2, -21, 5
21	CCC(=O)N1CCC2(CC1)Oc1ccc(F)cc1C(=O)C21CC(c2cccnc2)=NO1 (stereo unspecified)
    3, 5.2, 4036, 3, 0, 3, 2
22	Cc1c(Cc2ccccc2)sc(N=Cc2c(O)ccc3ccccc23)c1C(N)=O
    ., -2.3, ., 5, 3, 9, .
23	COc1ccc(-c2c(-c3cc(OC)cc(OC)c3)n(C)c3ccc(-c4ccc(OC)cc4F)cc23)cc1
    -23, 5.6, 2947, 9, 4, 4, .
24	Cc1ccc(N2CC(C(=O)Nc3nc4ccc(S(C)(=O)=O)cc4s3)CC2=O)cc1C (stereo unspecified)
    -35, 4.9, 3106, 0, -5, 8, 8
25	O=C(NCc1nnc(SCC(=O)N2CCCC2)o1)c1ccccc1F
    -31, 1.6, 3855, ., ., 4, -7
26	CON=C(CNC(=O)c1ccc(F)cc1)c1ccc(Cl)cc1
    ., -13, ., -10, -3, 9, .
27	COc1cc2c(cc1O)[C@@H]1Cc3cc(O)c(OC)cc3[C@H](C2)N1C
    -2, ., 3936, ., ., ., -2
28	CCOc1ccc(-n2nc(C(=O)N3CCN(CC)CC3)c3ccccc3c2=O)cc1
    -1, 2.1, 11060, 1, 14, -1, -3
29	Nc1ccc2oc(-c3cccc4ccccc34)nc2c1
    51*, 4.4, 3247, 12, 10, -8, 3
30	CCOC(=O)c1c(C)[nH]c(C(=O)COC(=O)CNC(=O)c2ccc(Cl)cc2Cl)c1C
    -7, 4.5, 2598, 6, 1, 0, 4

Reformatted as labelled records: part of the list above
25) O=C(NCc1nnc(SCC(=O)N2CCCC2)o1)c1ccccc1F
  PrP 5UTR inh: -31
  Sa RN4220 lethal: 1.6
  Bead autofluor: 3855
  Mtb hypoxia inh: .
  Mtb hypoxia inh growth: .
  Sa ugtP lethal: 4
  BJeLR viability: -7

26) CON=C(CNC(=O)c1ccc(F)cc1)c1ccc(Cl)cc1
  PrP 5UTR inh: .
  Sa RN4220 lethal: -13
  Bead autofluor: .
  Mtb hypoxia inh: -10
  Mtb hypoxia inh growth: -3
  Sa ugtP lethal: 9
  BJeLR viability: .

27) COc1cc2c(cc1O)[C@@H]1Cc3cc(O)c(OC)cc3[C@H](C2)N1C
  PrP 5UTR inh: -2
  Sa RN4220 lethal: .
  Bead autofluor: 3936
  Mtb hypoxia inh: .
  Mtb hypoxia inh growth: .
  Sa ugtP lethal: .
  BJeLR viability: -2

28) CCOc1ccc(-n2nc(C(=O)N3CCN(CC)CC3)c3ccccc3c2=O)cc1
  PrP 5UTR inh: -1
  Sa RN4220 lethal: 2.1
  Bead autofluor: 11060
  Mtb hypoxia inh: 1
  Mtb hypoxia inh growth: 14
  Sa ugtP lethal: -1
  BJeLR viability: -3

Other results:
Every second line gives: PrP 5UTR inh, Sa RN4220 lethal, Bead autofluor, Mtb hypoxia inh, Mtb hypoxia inh growth, Sa ugtP lethal, BJeLR viability
31	COc1ccc(OCC(=O)NCCc2ccc(S(N)(=O)=O)cc2)cc1
    -13, 2.3, 19610*, 7, 8, -1, -2
32	CN(C)S(=O)(=O)c1ccc(N2CCOCC2)c(C(=O)NCc2ccc3c(c2)OCO3)c1
    -10, 7.9, 2999, -4, -7, 14, .
33	CCOC(=O)c1ccc(N2N=C(C)/C(=C/C=C/c3ccco3)C2=O)cc1
    -31, 0.6, 22790*, 2, 13, -18, -6
34	O=C1CC(c2ccc(F)cc2)CC(O)=C1C1NCCc2ccccc21 (stereo unspecified)
    -13, 4.3, 3144, 4, 4, -2, 0
35	COc1ccccc1NC(=O)COc1ccc(C(=O)NCc2ccccc2)cc1OC
    -14, 15, 8438, -1, 7, 9, .
36	Cc1cc(S(=O)(=O)N2CCCc3ccccc32)ccc1-n1cnnn1
    -14, 8.1, 3932, 7, 4, 2, -5
37	CN(CC(=O)Nc1ccc2c(c1)OCO2)CC(=O)Nc1ccc(F)c(F)c1F
    -12, 5.0, 3377, 3, 3, -2, .
38	Cc1ccc(/C=N/NC(=O)C(C)NC(=O)c2ccccc2)cc1 (stereo unspecified)
    -21, ., 3563, ., ., ., -2
39	COCCOCCn1c(CCCO)nc2ccccc21
    -17, -1.4, 3538, ., ., -4, 0
40	Cc1ccc2nc(N=C(N)N)nc(C)c2c1
    -1, 8.4, 6362, 9, 5, -2, 11
41	CC[N+](C)(CC)CC(O)COCC1COc2ccccc2O1 (stereo unspecified)
    -7, 6.1, 9866, -4, -4, 12, -12
42	COc1ccc(Br)c(C(=O)OCC(=O)N2CCc3ccccc32)c1
    -24, 3.7, 3921, 7, 6, 7, .
43	O=C(NCc1nnc2c(C(F)(F)F)cc(Cl)cn12)C1CCCC1
    -10, -0.2, 4950, -7, 8, -2, -8
44	COc1ccccc1NC(=O)C(C)OC(=O)Cc1ccsc1 (stereo unspecified)
    -20, 3.0, ., 4, 3, 7, .
45	O=C(O)C1CC(=O)N(CCc2c[nH]c3ccccc23)C1 (stereo unspecified)
    -15, 0.1, 8998, 2, 5, 2, -2
46	Cc1ccc(-c2cc(Cc3ccc(N(C)C)cc3)c(=O)[nH]n2)cc1
    -25, -0.7, 4641, 0, -4, 8, -2
47	COc1ccc(S(=O)(=O)N2CCC(NC(=O)c3cccc(F)c3)CC2)cc1
    -7, 6.1, 3695, 10, 7, 6, -3
48	Cc1c(Cl)cccc1NC(=S)NC(=O)CCN1C(=O)c2ccccc2C1=O
    -36, -7.0, 2485, 15, 0, 16, -5
49	O=C(CNS(=O)(=O)c1ccc(Br)s1)Nc1ccc2c(c1)OCCO2
    -29, 6.2, 10870, -2, 4, -1, 5
50	O=C1CCc2cc(S(=O)(=O)N3CCN(c4ccc(F)cc4)CC3)cc3c2N1CC3
    -2, 3.6, ?, 2, 2, 7, 13
51	O=c1cc(Nc2cccc(Br)c2)[nH]c(=O)[nH]1
    -13, 16, 3424, 14, 11, -5, 7
52	COc1ccc(N2C(=O)CC(Cc3ccccc3OC)C2=O)cc1 (stereo unspecified)
    -5, 7.3, 3428, 10, 13, 16, -11
53	CC(NC(=O)c1cc(=O)[nH]c2ccccc12)c1ccc(F)cc1F (stereo unspecified)
    1, 3.8, 2964, -2, -10, 16, -9
54	O=[N+]([O-])c1cccc(CSc2nnc3ccccn23)c1
    -12, -1.3, 4331, -10, 6, -10, 3
55	S=c1[nH]nc(Cn2cnc3ccccc32)n1-c1ccccc1Cl
    -20, 5.1, 4562, -7, 10, -2, -7
56	CC(C)CCn1c(N2CCc3ccccc3C2)nc2c1c(=O)[nH]c(=O)n2C
    9, 8.7, 6162, 3, 5, 8, -2
57	CC1CCN(CCCOc2ccc(Br)cc2Cl)CC1
    -15, 4.8, 4500, 15, 13, -2, 3
58	CN(C(=O)CC1C(=O)NCCN1Cc1c(F)cccc1Cl)C1CCOCC1 (stereo unspecified)
    -14, -1.9, 5269, -4, 6, -4, -1
59	CC(C)Cc1nc2oc3c(NCc4cccnc4)ncnc3c2c2c1CCC2
    -22, 4.3, 9172, 7, 4, -12, -4
60	O=[N+]([O-])c1ccc(Cl)c(S(=O)(=O)NCCc2ccccn2)c1
    -11, 6.4, ., 3, 6, 4, .
61	CCc1nc(Nc2ccc(OC)cc2OC)c2oc3ccccc3c2n1
    -14, 23, 4311, -5, 6, -1, -1
62	CC(C)C(=O)NC(=S)Nc1sc2c(c1C(N)=O)CCCC2
    -22, -1.2, 3254, -3, -4, -5, 1
63	CCOC(=O)c1cc2sccc2n1CC(=O)N1CCN(C(=O)c2ccco2)CC1
    -16, 0.0, 7526, 7, 14, 9, 1
64	CN(C)c1c([N+](=O)[O-])ncn1C
    -16, 1.9, 2120, ., ., -2, -5
65	COc1ccc(-c2cc(=O)oc3cc(OC(C)C(=O)NC4CC4)ccc23)cc1 (stereo unspecified)
    -25, 2.9, 5323, ., ., 2, 8
66	C[C@H](NC(=O)c1ccco1)C(=O)NNC(=O)c1ccc(F)cc1
    -7, -1.2, 3560, -6, 8, -2, .
67	CCOc1cc(C=NNS(=O)(=O)c2ccc(OC)cc2)ccc1OCCN1CCOCC1
    ., 1.5, ., 6, 11, 1, .
68	O=C(O)c1cccc(NC(=S)N/N=C/c2ccccc2OCc2ccc(Br)cc2)c1
    -22, ., 2326, ., ., ., -6
69	COC(=O)CCC(=O)Nc1cc(OC)c(OC)cc1Cc1nccc2cc(OC)c(OC)cc12
    -12, 1.1, 4051, 5, -6, 7, 0
70	Cc1ccc(NC(=O)CN2C(=O)S/C(=C/c3ccc(-c4cc(C(=O)O)ccc4C)o3)C2=O)cc1C
    0, 12, 16807*, -2, -5, 63, -8
71	O=C(CSc1nnc(C2CC2)n1Cc1ccccc1)NCc1ccccc1
    -17, -2.6, 8807, 6, 9, -7, -3
72	Cn1c(SCC(=O)Nc2ccc3c(c2)OCCO3)nnc1C(F)(F)F
    -16, 7.7, 3482, -4, 3, 9, .
73	CC1CC(C)CN(CC(O)COCc2ccccc2F)C1 (stereo unspecified)
    -9, -4.8, 3684, -8, 4, 4, -8
74	O=C(Cc1ccccc1)N1CCN(Cc2ccc(F)cc2)CC1
    -16, 2.6, 4398, 17, 5, 5, 2
